VACV mCherry inh – inhibitors of vaccinia virus infection (mCherry reporter signal); Vaccinia virus mCherry reporter infection, fluorescence; about a quarter of the inactives have no number; Potency, µM (titrated, usually from 36.5 µM), for inactives: at the top dose activity change, negative = inhibition, hits mostly inhibitors; hit rate 0.63% among 310,000; AID 720579; active = well fitted inhibition curve with a large enough effect; inconclusive = small, poorly fitted or top-dose-only effect; inactive = no such curve, though single readings can be large or run the other way; tested in A549 cells; further: nearly all actives have a fitted effect of over 35% in size; inactives centre near -10
VACV Venus inh – inhibitors of vaccinia virus (Venus reporter); Potency, µM (titrated, usually from 36.5 µM), without a hit: top-dose activity change, negative = inhibition, most hits filed as inhibitors; hit rate 0.46% among 330,000; Vaccinia virus Venus reporter expression, fluorescence; active means well fitted inhibition curve with a large enough effect; inconclusive means small, poorly fitted or top-dose-only effect; inactive means no such curve, though single readings can be large or run the other way; tested in A549 cells; further: nearly all actives have a fitted effect of over 30% in size; inactives centre near -10
An asterisk follows results filed as active; i = inactive; ? = inconclusive; nt = not tested or not shown; [ ] = remark or other dose. On the % scale 0 is the no-effect control and ±100 the full control effect; potency means the concentration at half of the fitted maximal effect. Outcome played no part in choosing rows; overall some 0.87% were active at least once.

SMILES	VACV mCherry inh	VACV Venus inh
O=C(c1ccoc1)N1CCN(c2cc(-c3ccco3)nc3cc(-c4ccccc4)nn23)CC1	?	?
Cc1ccc(C(C)C)c(OCC(O)CN2CCN(CCO)CC2)c1 (configuration not stated)	nt	-4%
CCOc1cc(-c2ccc(OC(=O)c3ccccc3Cl)c(OC)c2)cc(=O)c2c(C)oc(C)c12	0%	-13%
CC(C)(C)C(=O)Nc1ccnn1C1CCN(C(=O)c2ccc(Cl)cc2F)CC1	i	-15%
CCCS/C(N)=N/N=C/c1cc(C)ccc1O	nt	?
Nc1c(N(CCC2=CCCCC2)C(=O)c2ccc([N+](=O)[O-])o2)c(=O)[nH]c(=O)n1Cc1ccccc1	i	-14%
NC(=O)CCN1CCN(Cc2nc(C(c3ccccc3)c3ccccc3)no2)CC1	i	-5%
NNc1nc(NCc2ccccc2)nc(N2CCOCC2)n1	nt	?
Clc1cc(Br)ccc1OCCCn1ccnc1	-10%	-4%
Cc1ccc(S(=O)(=O)Nc2ccc3c(c2)CC(=O)N([C@H](C)CO)C[C@@H](C)[C@H](CN(C)S(=O)(=O)c2ccccc2)O3)cc1	i	1%
COc1cccc(N2CCN(c3ccc4nnc(CCC(=O)Nc5ncccc5C)n4n3)CC2)c1	-1%	-10%
NCCCC[C@H]1CN=C(N)N1CCCCC1CCCCC1	i	-15%
CN1CCN(C(=O)/C(=C\c2ccccc2)c2ccccc2)CC1	-3%	-8%
CCn1c(CC(=O)Nc2ccccc2F)nnc1SCC(=O)NC1CCCCC1	-6%	-7%
Cc1ccc(Cn2cc(S(=O)(=O)c3ccc(C(C)C)cc3)c(=O)c3cc4c(cc32)OCO4)cc1	-8%	-12%
CCc1nnc(NS(=O)(=O)c2ccc(N=Cc3c(O)n(-c4ccccc4)c(=O)[nH]c3=O)cc2)s1	?	-6%
CC12CCC3C(CCC4(O)CC(O)CCC34C=O)C1(O)CCC2C1=CC(=O)OC1 (configuration not stated)	?	1µM*
Cc1cc(C)cc(NC(=O)COC(=O)CN=C2NS(=O)(=O)c3ccccc32)c1	i	-2%
Cc1ccc(-c2nc3ccccc3s2)cc1NC(=S)NC(=O)c1ccccc1	nt	-9%
CCOc1ccc(-n2c(-c3ccccc3)c[n+]3c2CCC3)cc1	-9%	2%
CCCNNC(=O)C(O)(c1ccccc1)c1ccccc1	-9%	-27%
CCN(CC)S(=O)(=O)c1ccc(C(=O)NC(=S)N2CCCCC2C)cc1 (configuration not stated)	-15%	-7%
CNC(=O)c1[nH]cnc1C(=O)Nc1cccc(C)c1	-9%	-17%
O=C(Nc1ccccc1Cl)c1ccc(F)c(S(=O)(=O)NCc2ccc(Cl)c(Cl)c2)c1	-19%	-23%
Cn1c(SCC(=O)N2CCOCC2)nnc1-c1cccc(NC(=O)c2ccccc2)c1	-13%	-2%

(listing goes on)
SMILES	VACV mCherry inh	VACV Venus inh
CC1(C)CC(NC(=O)N2c3ccccc3Sc3ccccc32)CC(C)(C)N1	-23%	-12%
C[C@]12CC[C@@H]3c4ccc(O)cc4C(=O)C[C@H]3[C@@H]1CC[C@@H]2O	i	-17%
CCNC(=S)N(Cc1ccco1)Cc1cc2cc3c(cc2[nH]c1=O)OCCO3	i	-15%
O=C(Nc1nccs1)c1ccc2c(=O)n3c(nc2c1)CCCCC3	12%	-19%
CCCCOc1cccc(C(=O)Nc2ccc(NC(=O)c3cccs3)cc2)c1	-14%	?
CN(Cc1cn(Cc2ccc(C(F)(F)F)cc2)nn1)C1CN(Cc2cn(Cc3ccc(C(F)(F)F)cc3)nn2)S(=O)(=O)C1 (configuration not stated)	?	-28%
CCc1nnc(NC(=O)CSc2nnc(Cc3ccc(OC)cc3)o2)s1	-4%	-19%
CC(C)(C)C(=O)Nc1cccc(-c2nc3ccccc3c(=O)o2)c1	-17%	-12%
c1ccc2c(c1)ncc1nncn12	-15%	0%
OCCN1CCN(c2ncnc3c2ncn3[C@H]2CN(Cc3ccc(Cl)cc3)C[C@@H](CO)O2)CC1	-2%	5%
Cc1ccc(C(=O)N/C(=C/c2ccco2)C(=O)OCN2C(=O)c3ccccc3C2=O)cc1	i	-13%
COc1cc(NC(=O)[C@H]2O[C@@H](n3cnc4c(N)ncnc43)[C@H](O)[C@@H]2O)cc(OC)c1OC	22%	-6%
CCn1c(SCC(=O)N/N=C/c2ccc(C)s2)nc2ccccc21	?	-22%
O=C(Nc1ccc(F)cc1)C(NC1CCCCC1)c1ccccc1 (configuration not stated)	-4%	-4%
CCn1c(=O)c([N+](=O)[O-])c(NCCCn2ccnc2)c2ccccc21	i	-17%
Cc1ccc(CNS(=O)(=O)c2ccc3c(c2)OCCO3)cc1	-8%	-11%
COc1ccc(C2CC(c3ccccc3)=NN2C(=O)COC(=O)c2cc(S(=O)(=O)N3CCOCC3)ccc2F)cc1 (configuration not stated)	-4%	-10%
O=C(COc1ccccc1)Nn1c(-c2ccccc2)nc2ccccc2c1=O	-11%	2%
O=C(COC(=O)c1cccc(Cl)c1)NCc1ccccc1	-22%	16%
O=C(NCc1ccccc1Br)c1ccc2c(c1)nc1n2CCOC1	-9%	-3%
c1ccc(-c2cc3c(-n4cccc4)ncnc3o2)cc1	i	-10%
Cc1ccc(C)c(S(=O)(=O)c2nnn3c2nc(Nc2ccc(C)c(C)c2)c2ccccc23)c1	-20%	-15%
O=C(CN(Cc1ccccc1)S(=O)(=O)c1ccc(Br)cc1)NCC1CCCO1 (configuration not stated)	-16%	-6%
O=C(Nc1ccc([N+](=O)[O-])cc1)C(Cc1ccccc1)N1C(=O)c2cccc3cccc(c23)C1=O (configuration not stated)	i	-2%
CC(C)c1nc2ccc(C(=O)NCc3ccc(N(C)C)cc3)cc2o1	-3%[7.34 µM]	-11%[7.34 µM]

3 entries from above, with values under each structure.
Order of results: VACV mCherry inh | VACV Venus inh
OCCN1CCN(c2ncnc3c2ncn3[C@H]2CN(Cc3ccc(Cl)cc3)C[C@@H](CO)O2)CC1
  -2% | 5%
C[C@]12CC[C@@H]3c4ccc(O)cc4C(=O)C[C@H]3[C@@H]1CC[C@@H]2O
  i | -17%
O=C(CN(Cc1ccccc1)S(=O)(=O)c1ccc(Br)cc1)NCC1CCCO1 (configuration not stated)
  -16% | -6%

Additional structures
SMILES	VACV mCherry inh	VACV Venus inh
O=C(/C=C/N1CCOCC1)c1coc2ccccc12	i	8%
O=C(Nc1cccc(C(=O)O)c1)Nc1ccccc1Cl	-1%	-13%
Cc1ccccc1OCCOc1cccc(/C=N/NC(=O)Cc2nnc(N)s2)c1	nt	-20%
O=C1OCc2ccc([N+](=O)[O-])cc21	i	5%
COc1cc(S(=O)(=O)NCCc2c(C)[nH]c3ccc(C)cc23)ccc1Br	-16%	-19%
CC(C)COC(=O)Cc1c(O)c2ccccc2[nH]c1=O	-2%	-4%
C=CCOc1ccc(-c2n[nH]c(=S)o2)cc1	-1%	-3%
COc1cc(C(=O)NC2CCCCC2)ccc1OC1CCN(C(C)=O)CC1	-14%	-10%
O=C(N=C1SCC(=O)N1c1ccccc1Cl)c1ccccc1	9%	80%[activator]
CCc1ccc(-c2cc3c(=O)n(CC(=O)NCCCN4CCN(C)CC4)ncn3n2)cc1	-18%	-20%
O=C(COc1ccc(Cl)cc1Cl)NCCSc1ccc(Cl)cc1	-12%	-3%
CC(C)NC(=O)COC(=O)CNC(=O)C1CCCCC1	4%	-15%
CCOC(=O)[C@H]1[C@H]2COc3ccc(OC)cc3[C@H]2N2C(=O)CN(Cc3ccccc3)C(=O)[C@@]12C	i	6%
Cc1ccc(/C=C/C(=O)NCCc2c[nH]c3ccccc23)o1	i	-17%
Oc1ccccc1-c1nc(/C=C/c2ccccc2Cl)nn1-c1ccccc1	-11%	-4%
O=c1c2ccccc2c(C=Nc2ccc(Cl)cn2)c(O)n1-c1cc(Cl)ccc1N1CCOCC1	nt	-13%
CCC(=O)N1CCN(c2ccc(NC(=O)c3ccc([N+](=O)[O-])o3)cc2Cl)CC1	13µM*	11µM*
O=S(=O)(NCC(c1ccco1)S(=O)(=O)c1ccccc1)c1ccccc1 (configuration not stated)	-13%	-13%
Cc1cccc(NC(=O)CSc2ccc(-c3cccnc3)nn2)c1	-20%	-2%
COc1cc(Cl)c(NS(=O)(=O)c2ccc3c(c2)CC(C)N3C(=O)C2CCC2)c(OC)c1 (configuration not stated)	-18%[7.34 µM]	-20%[7.34 µM]
CCOC(=O)c1c(C)[nH]c(C)c1S(=O)(=O)N1CCCC(C(=O)N2CCN(c3cc(C)ccc3C)CC2)C1 (configuration not stated)	-25%	-18%
COc1cc(CN2CCC(C(=O)NC(c3ccc(F)cc3)c3ccc4ccccc4n3)CC2)cc(OC)c1 (configuration not stated)	?	14µM*
O=S(=O)(Nc1ccccn1)c1cccc(S(=O)(=O)c2ccc(Br)cc2)c1	-12%	-10%
COc1ccc(Cl)cc1C(=O)Nc1ccncc1	-20%	-11%
CCOC(=O)c1ccc(NC(=O)CSc2c(C(C)C)cnc3c2c(=O)n(C)c(=O)n3C)cc1	0%	-4%

Not a retest: an excerpt of the list.
SMILES	VACV mCherry inh	VACV Venus inh
O=C(/C=C/N1CCOCC1)c1coc2ccccc12	i	8%
O=C(Nc1cccc(C(=O)O)c1)Nc1ccccc1Cl	-1%	-13%
Cc1ccccc1OCCOc1cccc(/C=N/NC(=O)Cc2nnc(N)s2)c1	nt	-20%
O=C1OCc2ccc([N+](=O)[O-])cc21	i	5%
COc1cc(S(=O)(=O)NCCc2c(C)[nH]c3ccc(C)cc23)ccc1Br	-16%	-19%
CC(C)COC(=O)Cc1c(O)c2ccccc2[nH]c1=O	-2%	-4%
C=CCOc1ccc(-c2n[nH]c(=S)o2)cc1	-1%	-3%

(cont.)
SMILES	VACV mCherry inh	VACV Venus inh
CC1SCC(NC(=O)c2ccc(Cl)cc2)CS1 (configuration not stated)	-8%	-8%
Nc1ccc(C(=O)N/N=C/c2cn(Cc3ccc(F)cc3)c3ccccc23)cc1	-12%	-13%
O=C(c1ccccc1)c1ccc(OCC(O)CNCc2ccc(F)cc2)cc1 (configuration not stated)	-15%	-22%
NS(=O)(=O)c1ccc(CCNC(=O)CNC(=O)Cc2ccccc2)cc1	-13%	-8%
O=C(COC(=O)c1cc(S(=O)(=O)N2CCOCC2)ccc1F)Nc1cc([N+](=O)[O-])ccc1F	-20%	-12%
Cc1cccc(NC(=O)CSCC(=O)N2CCN(C(=O)c3ccco3)CC2)c1	-12%	-4%
COc1ccc(C2/C(=C(\O)c3ccc4c(c3)OCCO4)C(=O)C(=O)N2Cc2ccco2)c(OC)c1 (configuration not stated)	-19%	-21%
N#CC1=C(N)NC(=S)C(C(N)=O)C1c1ccc([N+](=O)[O-])cc1 (configuration not stated)	-8%	1%
CC(c1ccccc1)N1C(=O)C2C3C=CC(C4CC34)C2C1=O (configuration not stated)	i	6%
COc1ccc(C(=O)Nc2nnc(-c3ccccc3)s2)cc1	i	-3%
CC(C)c1ccc(Cn2c(COc3ccccc3)nc3ccccc32)cc1	i	-3%
Cc1ccc(C)c(NC(=O)CN2CCN(C3CCCCC3)C(=O)C2=O)c1	-13%	-4%
Cc1csc(NC(=O)C2CCCN(S(=O)(=O)c3cnc[nH]3)C2)n1 (configuration not stated)	i	-5%
CCS(=O)(=O)c1nc(S(=O)(=O)c2ccc(C)cc2)c(NCCCOC)s1	-13%	-6%
CCCCN(C(=O)CSc1nnc(-c2ccc(OC)cc2)n1CC)c1c(N)n(Cc2ccccc2)c(=O)[nH]c1=O	i	-3%
CCOc1ccc(NC(=O)C2CC(=O)N(c3ccc(C(C)C)cc3)C2)cc1 (configuration not stated)	2%	-6%
O=C(NCc1ccc(Cl)nc1)c1csc(COCCO)n1	6%	0%
Cc1nc(Cl)c(N=Cc2cccc([N+](=O)[O-])c2)c(Cl)n1	-7%	-1%
COc1ccc(NC(=S)N2CCC(NC(=O)c3ccco3)CC2)cc1	-3%	-5%
CN(C)C(=O)Nc1ccccc1CC[N+](=O)[O-]	-6%	0%
CC(=O)Nc1cccc(-c2ccnc3c2CC(C)(C(=O)NCC2CC2)O3)c1 (configuration not stated)	?	-18%
C#CCOCCOCCOCCNc1nc(N2CCN(C(=O)[C@H]([C@@H](C)CC)n3cc(CCCCN)nn3)CC2)nc(N2CCN(C(=O)[C@H]([C@@H](C)CC)n3cc(CCCN=C(N)N)nn3)CC2)n1	i	-5%
CCOc1ccc(Cn2ccnc2)cc1[N+](=O)[O-]	i	-5%
CCc1ccc2nc(Nc3ccc(OC)cc3OC)c(C#N)cc2c1	-14%	-23%
CC12CCC(=O)N1C(C(=O)Nc1nc(-c3ccccc3)cs1)CS2 (configuration not stated)	-2%	-16%

(cont.)
SMILES	VACV mCherry inh	VACV Venus inh
COc1ccc(C(=O)NC(=S)NNC(=O)c2ccc(NC(C)=O)cc2)cc1Br	-28%	-26%
CCN(CC)S(=O)(=O)c1ccc(C(=O)NNc2nc(-c3ccccc3)c3cc(Br)ccc3n2)cc1	-4%	-14%
Cn1cc(S(=O)(=O)NC2CCCCCC2)c(=O)n(C)c1=O	i	-10%
COc1ccccc1Cc1c(-c2ccc(OC)c(OC)c2)nc2ccc(Br)cn12	-15%	-22%
CC1CCCN(c2c(S(=O)(=O)c3ccccc3)cnc3ccc(Cl)cc23)C1 (configuration not stated)	-19%	-10%
CCN(CC)S(=O)(=O)c1ccc(C(=O)N2CCN=C2SC)cc1	i	-4%
Cc1ccc(C(=O)NCCNC(=O)c2cnccn2)cc1	i	-3%
O=C(Nc1ccccc1Cl)N1CCN(c2ccc3nnc(-c4ccc(F)cc4)n3n2)CC1	-4%	-7%
COCCN=c1scc(-c2ccco2)n1/N=C/c1ccc(O)c(O)c1O	-27%	-12%
COc1cc2c(c(OC)c1)C(c1cccc(F)c1F)CC(=O)N2 (configuration not stated)	-1%	3%

Screening results (PubChem BioAssay)
